Sa ugtP lethal: growth inhibition of ugtP-null S. aureus, primary screen, RN4220 ugtP deletion, OD600; 330,000 tested, 0.54% active; AID 1259309, 2017; 16 h; some inactives read as strong as hits; growth inhibition, % (test concentration not listed);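 active = z-score under -3 and OD600 up to 0.15 on both plates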;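 also: plate controls were untreated wells for no effect and antibiotic for full effect; wells of about 80 µL received 100 nL stock; the first replicate is given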
Mtb hypoxia inh: PubChem AID 1159583; M. tuberculosis hypoxia-regulated fluorescent reporter, fluorescence; fluorescence inhibition, % (concentration not given with the values); 300,000 tested, 0.1% active;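 active = 35 to 45% if threefold the growth effect, above 45% if 1.5-fold the growth effect; inactive = the rest, general growth blockers included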;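 also: wells of about 50 µL received 100 nL stock; 0% = vehicle wells and 100% = reference inhibitor wells; whole bacteria with a GFP reporter of the hypoxia response; strong numbers were not always called active; many hits fall short of the cut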
Bead autofluor: counter-screen for toxin protease inhibitors: compound fluorescence; fluorescence intensity (no concentration beside the values); 360,000 tested, 3.1% active; AID 624483; compound autofluorescence counterscreen, microsphere flow cytometry; hits give high values;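 active = at least 3 SD above the mean of all compounds, about 16000 in these data; inconclusive = too few beads counted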;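 also: 100 nL of 1 mM stock went into each well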
Sa RN4220 lethal: growth inhibition of S. aureus RN4220, primary screen, OD600; 16 h; 330,000 tested, 0.33% active; inhibition, % (concentration not given with the values);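 active = z-score of -3 or lower and OD600 up to 0.18 on both plates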;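 also: plate controls were untreated cells for no effect and reference antibiotic for full effect; stock transfer was 100 nL into about 80 µL; one replicate is shown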
BJeLR viability: MLPCN primary cell-based screen for lethality selective to Ras in HRASV12 cells. inhibition, % (concentration not given with the values). BJeLR (HRASV12) viability, CellTiter-Glo ATP luminescence, 48 h; reference of the scale not given here. 300,000 tested, 0.17% active;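 active = replicate mean above 50%; inconclusive = above 50% but judged a plate artefact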;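 also: 50 nL library stock added to about 25 µL; numbers are from one replicate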
PrP UTR inh: inhibition of PrP 5' UTR reporter expression | AID 488862, 2010 | cell-based PrP 5' UTR mRNA reporter, plate reader | 340,000 tested, 0.35% active | inhibition, % (test concentration not listed);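 active = every replicate at 50% or more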;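 also: 0 = median of the neutral control wells; tested in H4 reporter cells; numbers are from one replicate; inactives centre near -14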
Mtb hypoxia inh growth: recorded beside Mtb hypoxia inh, whose call it bears; growth inhibition, %; measured here: M. tuberculosis growth (absorbance);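 0% = vehicle and 100% = reference antibiotic; read after six days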
The depositor's hits bear a star. No enrichment for hits; 4% or so of the library scored in one or more.

Screening COc1ccc(N=Nc2ccc(CO)cc2)cc1 returned Sa ugtP lethal -5.9, Mtb hypoxia inh -5.0, Bead autofluor 3617, Sa RN4220 lethal 2.9, BJeLR viability 5.6, PrP UTR inh -52.5 and Mtb hypoxia inh growth 9.2.
`CC(OC(=O)c1nc(Cl)ccc1Cl)C(=O)Nc1ccccc1F` (centres undefined) gave Sa ugtP lethal 4.0, Mtb hypoxia inh 11.9, Bead autofluor 6168, Sa RN4220 lethal 2.6, BJeLR viability 0.0, PrP UTR inh -21.9 and Mtb hypoxia inh growth -0.5.
Screening CC1(C(=O)N(CC(=O)NC2CCCC2)C2CCCC2)CC(=O)N=C2C=CC=CN21 (centres undefined) returned Sa ugtP lethal 4.6, Mtb hypoxia inh 4.4, Bead autofluor 8108, Sa RN4220 lethal 0.8, BJeLR viability 2.6, PrP UTR inh -23.9 and Mtb hypoxia inh growth 2.8.
Screening S=C(Nc1ccc(Cl)cc1)NC1CC2CCCC(C1)N2C1CC1 (centres undefined) returned Sa ugtP lethal 4.8, Mtb hypoxia inh 8.8, Bead autofluor 7965, Sa RN4220 lethal 1.3, BJeLR viability 2.0, PrP UTR inh 4.0 and Mtb hypoxia inh growth 9.6.
For CCCCn1c(N)c(N(CCC(C)C)C(=O)c2ccc([N+](=O)[O-])o2)c(=O)[nH]c1=O the results were Sa ugtP lethal 3.5, Mtb hypoxia inh 5.0, Bead autofluor 6753, Sa RN4220 lethal 10.5, BJeLR viability 4.5, PrP UTR inh -20.1 and Mtb hypoxia inh growth -6.5.
For CCNc1nc(NOC)nc(OCC#N)n1 the results were Sa ugtP lethal 7.4, Mtb hypoxia inh -2.5, Bead autofluor 2590, Sa RN4220 lethal 10.9, BJeLR viability -3.2, PrP UTR inh -15.6 and Mtb hypoxia inh growth -12.6.
`CCN1/C(=C\C(C)=O)Sc2ccc(OC)cc21` gave Sa ugtP lethal -4.1, Mtb hypoxia inh 12.4, Bead autofluor 5842, Sa RN4220 lethal 2.8, BJeLR viability -1.2, PrP UTR inh -38.2 and Mtb hypoxia inh growth 6.1.
`O=C(O)CN1C(=O)c2cccc(Oc3ccc(Cl)cc3)c2C1=O` gave Sa ugtP lethal 1.5, Mtb hypoxia inh 6.0, Bead autofluor 6468, Sa RN4220 lethal 1.4, BJeLR viability 5.4, PrP UTR inh -12.7 and Mtb hypoxia inh growth 2.3.
CSc1nc2ccc(NC(=O)c3ccccn3)cc2s1 was read as Sa ugtP lethal 8.0, Mtb hypoxia inh 10.4, Bead autofluor 5473, Sa RN4220 lethal 3.9, BJeLR viability 10.4, PrP UTR inh 6.0 and Mtb hypoxia inh growth -4.8.
Cc1ccc(C2=[N+]([O-])C3(CCCCC3=O)N(O)C2(C)C)cc1 (centres undefined) was read as Sa ugtP lethal 9.8, Mtb hypoxia inh 10.7, Bead autofluor 8999, Sa RN4220 lethal 3.1, BJeLR viability -13.9, PrP UTR inh -19.4 and Mtb hypoxia inh growth -3.1.
`CC(=NNC(=O)c1cccc(Cl)c1)c1cccc(NC(=O)C(C)C)c1` gave Sa ugtP lethal 5.4, Mtb hypoxia inh -5.3, Sa RN4220 lethal 1.2 and Mtb hypoxia inh growth -0.4.
`Cc1nn2c(-c3cccc(NC(=O)CN4CCOCC4)c3)nnc2c2ccccc12` gave Sa ugtP lethal 7.0, Mtb hypoxia inh 11.3, Sa RN4220 lethal 6.5, BJeLR viability -7.7 and Mtb hypoxia inh growth 5.7.
Cc1cccn2c(CNCC3(c4ccccc4)CCCC3)c(C(=O)N3CCOCC3)nc12 was read as Sa ugtP lethal 3.9, Mtb hypoxia inh 11.4, Bead autofluor 5015, Sa RN4220 lethal 1.6, BJeLR viability -2.7, PrP UTR inh -0.9 and Mtb hypoxia inh growth 7.9.
Screening Cc1noc(C)c1C(=O)N1CCN(c2cccc(Cl)c2)CC1 returned Sa ugtP lethal 4.1, Mtb hypoxia inh 4.7, Bead autofluor 2955, Sa RN4220 lethal 0.7, BJeLR viability -2.8, PrP UTR inh -36.0 and Mtb hypoxia inh growth -4.4.
For O=C(CCN=C1NS(=O)(=O)c2ccccc21)OCc1c(F)c(F)c(F)c(F)c1F the results were Sa ugtP lethal 1.9, Mtb hypoxia inh 3.4, Bead autofluor 5290, Sa RN4220 lethal 2.9, PrP UTR inh -13.4 and Mtb hypoxia inh growth -4.9.
Screening O=[N+]([O-])c1ccc2nc(-c3ccc(Cl)cc3)[nH]c2c1 returned Sa ugtP lethal -12.1, Mtb hypoxia inh 9.9, Bead autofluor 2607, Sa RN4220 lethal 6.0, BJeLR viability -7.7, PrP UTR inh -105.9 and Mtb hypoxia inh growth 6.4.
For N#CCSc1nnc(C2CCCCC2)n1-c1ccccc1 the results were Sa ugtP lethal -4.0, Mtb hypoxia inh 10.6, Bead autofluor 9996, Sa RN4220 lethal 2.1, BJeLR viability 3.4, PrP UTR inh 2.8 and Mtb hypoxia inh growth 6.4.
`O=C(O)COc1ccccc1/C=N/NC(=O)COc1ccc(-c2ccccc2)cc1` gave Bead autofluor 4718, BJeLR viability 3.6 and PrP UTR inh -11.4.
Screening COc1ccc(OC)c(CN2CCC(CO)(CCOc3ccccc3)CC2)c1 returned Sa ugtP lethal -1.3, Mtb hypoxia inh -5.5, Bead autofluor 3274, Sa RN4220 lethal 1.7, BJeLR viability 7.8, PrP UTR inh -12.2 and Mtb hypoxia inh growth 3.9.
For Cc1cc(C)cc(C(=O)NC(CC(N)=O)c2ccc(NCCN3CCOCC3)c([N+](=O)[O-])c2)c1 (centres undefined) the results were Bead autofluor 3191, BJeLR viability 10.3 and PrP UTR inh -5.3.

Reprinted at random: 2 compounds from above
Screening COc1ccc(N=Nc2ccc(CO)cc2)cc1 returned Sa ugtP lethal -5.9, Mtb hypoxia inh -5.0, Bead autofluor 3617, Sa RN4220 lethal 2.9, BJeLR viability 5.6, PrP UTR inh -52.5 and Mtb hypoxia inh growth 9.2.
Screening COc1ccc(OC)c(CN2CCC(CO)(CCOc3ccccc3)CC2)c1 returned Sa ugtP lethal -1.3, Mtb hypoxia inh -5.5, Bead autofluor 3274, Sa RN4220 lethal 1.7, BJeLR viability 7.8, PrP UTR inh -12.2 and Mtb hypoxia inh growth 3.9.

Next records follow:
For Cc1cccc(N2CC(C(=O)Nc3nnc(SCCC4OCCO4)s3)CC2=O)c1 (centres undefined) the results were Sa ugtP lethal 4.3, Mtb hypoxia inh 0.1, Bead autofluor 6185, Sa RN4220 lethal 2.4, BJeLR viability 3.3, PrP UTR inh -17.3 and Mtb hypoxia inh growth 4.4.
`CSc1nc2nc(C)cc(-c3ccccc3)n2n1` gave Sa ugtP lethal -6.5, Mtb hypoxia inh -1.2, Bead autofluor inconclusive, Sa RN4220 lethal -1.3, BJeLR viability 6.8, PrP UTR inh -22.7 and Mtb hypoxia inh growth 4.0.
Screening O=C(NCc1ccccc1CN1CCCC1)c1cccc(S(=O)(=O)Nc2ccc(F)cc2)c1 returned Sa ugtP lethal -3.8, Mtb hypoxia inh -0.6, Sa RN4220 lethal -0.1, PrP UTR inh -16.1 and Mtb hypoxia inh growth -4.9.
Screening CCn1c(CNc2ccc(Cl)cc2)nnc1SCC(=O)NCc1ccccc1 returned Sa ugtP lethal 2.5, Mtb hypoxia inh -17.1, Bead autofluor 4264, Sa RN4220 lethal -3.6, BJeLR viability 1.5, PrP UTR inh -4.4 and Mtb hypoxia inh growth -5.2.
`Cc1ccc(NC(=O)NC(=O)CN2C(=O)NC3(CCCCCCC3)C2=O)c(C)c1` gave Sa ugtP lethal -8.4, Mtb hypoxia inh 0.4, Bead autofluor 9603, Sa RN4220 lethal -0.7, BJeLR viability 0.3, PrP UTR inh -52.2 and Mtb hypoxia inh growth 0.8.
Screening COc1cc(C2N(C)CCC3(OCCO3)C2(C)C)cc(OC)c1OC (centres undefined) returned Sa ugtP lethal 3.9, Mtb hypoxia inh 5.8, Bead autofluor 7804, Sa RN4220 lethal 1.2, BJeLR viability 8.0, PrP UTR inh -19.1 and Mtb hypoxia inh growth 8.8.
Screening N#Cc1nc(COc2ccc(Br)cc2)oc1NCCN1CCOCC1 returned Sa ugtP lethal -6.3, Mtb hypoxia inh 6.9, Bead autofluor 23449*, Sa RN4220 lethal 4.3, BJeLR viability -2.7, PrP UTR inh -18.2 and Mtb hypoxia inh growth 2.3.
CCN(CC1COc2ccccc2O1)C(=S)Nc1ccccc1 (centres undefined) was read as Sa ugtP lethal -3.8, Mtb hypoxia inh 7.5, Bead autofluor 7641, Sa RN4220 lethal -1.4, BJeLR viability 12.0 and Mtb hypoxia inh growth 2.1.
Screening CCC(C(=O)Nc1ccon1)c1ccccc1 (centres undefined) returned Sa ugtP lethal 4.7, Mtb hypoxia inh 7.7, Bead autofluor 6148, Sa RN4220 lethal 0.8, BJeLR viability 4.0, PrP UTR inh -3.4 and Mtb hypoxia inh growth -5.4.
For CCCCn1c(N)c(N(CCOC)C(=O)Cn2c(=O)cnc3ccccc32)c(=O)[nH]c1=O the results were Sa ugtP lethal 3.9, Mtb hypoxia inh 5.9, Bead autofluor 3394, Sa RN4220 lethal 3.0, PrP UTR inh -8.7 and Mtb hypoxia inh growth 0.5.
`CSc1ncccc1C(=O)OC(C)C(=O)Nc1cccc(S(=O)(=O)N2CCOCC2)c1` (centres undefined) gave Sa ugtP lethal 3.3, Mtb hypoxia inh -3.8, Bead autofluor 3919, Sa RN4220 lethal 3.0, PrP UTR inh -2.1 and Mtb hypoxia inh growth 5.7.
CC(C)c1cccc(C(C)C)c1NC(=O)c1ccc(OCC(=O)NCc2ccccc2)cc1 was read as Sa ugtP lethal -1.1, Mtb hypoxia inh 7.1, Sa RN4220 lethal 5.1, BJeLR viability -0.7 and Mtb hypoxia inh growth 1.2.
CC(C)C(OC(=O)c1nsc(Cl)c1Cl)C(=O)NC(C)(C)C (centres undefined) was read as Sa ugtP lethal -2.5, Mtb hypoxia inh 7.3, Bead autofluor 4736, Sa RN4220 lethal 7.3, BJeLR viability 5.7, PrP UTR inh 0.2 and Mtb hypoxia inh growth 4.6.
For CCCN1CN(c2ccccc2)C(=S)N(c2ccccc2)C1 the results were Sa ugtP lethal 3.1, Mtb hypoxia inh 18.4, Bead autofluor 3844, Sa RN4220 lethal 4.1, BJeLR viability 0.6, PrP UTR inh -26.0 and Mtb hypoxia inh growth 6.0.
For c1ccc(-c2nnnc3ccccc23)cc1 the results were Sa ugtP lethal -3.1, Mtb hypoxia inh 6.8, Bead autofluor 9017, Sa RN4220 lethal 4.7, BJeLR viability -16.3, PrP UTR inh -17.3 and Mtb hypoxia inh growth 4.2.
For NC(=O)c1c(NC(=O)CN2C(=O)CCC2=O)sc2c1CCCCC2 the results were Sa ugtP lethal -12.8, Mtb hypoxia inh 1.1, Bead autofluor 5100, Sa RN4220 lethal 5.1, BJeLR viability -10.6, PrP UTR inh -23.8 and Mtb hypoxia inh growth 1.4.
`CC(CN1CCCC1)OC(=O)c1ccc(Cl)cc1` (centres undefined) gave Sa ugtP lethal -0.1, Mtb hypoxia inh 18.0, Bead autofluor 4523, Sa RN4220 lethal 5.7, BJeLR viability 13.2, PrP UTR inh -57.2 and Mtb hypoxia inh growth 2.7.
`CCOc1ccccc1OCCCC(=O)N(C)CC(=O)Nc1cc(C)ccc1C` gave Sa ugtP lethal 3.2, Mtb hypoxia inh 6.6, Bead autofluor 4191, Sa RN4220 lethal 0.3, BJeLR viability 2.2, PrP UTR inh 14.2 and Mtb hypoxia inh growth 3.0.
COc1cccc(NC(=O)c2cc(OC)c(OC)c(OC)c2Br)c1 was read as Sa ugtP lethal 3.9, Mtb hypoxia inh -10.7, Bead autofluor 2565, Sa RN4220 lethal 5.6, BJeLR viability -8.3, PrP UTR inh -14.4 and Mtb hypoxia inh growth -5.5.
For CC(=O)NC(Cc1ccccc1C)C(=O)NC1CCN(C(=O)c2cccc(C)c2)CC1 (centres undefined) the results were Sa ugtP lethal 5.3, Mtb hypoxia inh 1.8, Bead autofluor 4873, Sa RN4220 lethal -2.0, BJeLR viability 16.4, PrP UTR inh -10.2 and Mtb hypoxia inh growth 4.9.
`Cc1ccc(-n2c(C)cc(C(=O)COc3c(CO)cc(F)cc3CO)c2C)cc1C` gave Sa ugtP lethal 15.2, Mtb hypoxia inh 9.2, Bead autofluor 7370, Sa RN4220 lethal 7.5, BJeLR viability 0.4, PrP UTR inh -11.3 and Mtb hypoxia inh growth 2.4.
